PMP22 txn prim: Cell-based coincidence reporter assay to measure PMP22 gene transcription in S16 Pmp22-F2sN cells - Primary screen. S16 Pmp22-F2sN Schwann cells (luciferase reporters placed in the Pmp22 gene), FLuc/NLuc coincidence luminescence, 24 h. Potency, µM (series often up to 57.5 µM), for inactives: at the top dose activity change, negative = inhibition, most hits filed as inhibitors. 2% of 43,000 active. AID 1508649, 2021; active = clear falling dose curves in both reporters; inconclusive = both reporters move, but less clearly or upward; inactive = either reporter flat; the % is the NLuc reporter signal; also: % is scaled to controls: 0 for no effect and ±100 for the full control effect; some results filed as inactive show a strong effect at the top dose
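Transcriptional readout in edited S16(c9) cells: two luciferases reported from the Pmp22 locus, measured in turn after 24 h compound incubation.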
HTT prom inh: Primary qHTS for Identification of Small Molecule Inhibitors of Huntingtin Promoter Activity | HEK293 HTT promoter firefly luciferase reporter (activity 0% = vehicle and -100% = no light), 24 h | Potency, µM (series often up to 57.5 µM), without a hit: top-dose activity change, negative = inhibition, most hits filed as inhibitors | 0.93% of 48,000 active; active = well fitted inhibition curve with a large enough effect; inconclusive = small, poorly fitted or top-dose-only effect; inactive = no such curve, though single readings can be large or run the other way; also: nearly all actives have a fitted effect of over 50% in size
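HEK293 luciferase promoter-reporter cells (2,500/well) plated 24 h, then compounds added at up to 57.5 uM final for 24 h at 37 °C. Firefly luminescence by Dual-Glo, normalized to vehicle (0%) and zero RLU (-100%).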
Starred values were filed as active, the others as inactive; ? = inconclusive; nt = no result given; [ ] = remark or other dose. Potency is read from the fitted curve at half-maximal effect. This is a subset (hit frequency here may not be typical).

A first look, four compounds:
Molecule | PMP22 txn prim | HTT prom inh
Cc1cccc(C)c1OCC(=O)Nc1c(C(=O)c2ccccc2)oc2ccccc12 | -22% | -7%
Cc1cccc(-c2nc(CSCC(=O)N3CCN(c4cccc(C)c4C)CC3)c(C)o2)c1 | ? | ?
COc1ccccc1CNC(=O)CN(c1ccccc1OC)S(C)(=O)=O | -6% | -9%
CCC(=O)N1CCCc2cc(S(=O)(=O)Nc3ccc(C)c(C)c3)ccc21 | ? | ?

The whole of this part, from the start:
Molecule | PMP22 txn prim | HTT prom inh
Cc1cccc(C)c1OCC(=O)Nc1c(C(=O)c2ccccc2)oc2ccccc12 | -22% | -7%
Cc1cccc(-c2nc(CSCC(=O)N3CCN(c4cccc(C)c4C)CC3)c(C)o2)c1 | ? | ?
COc1ccccc1CNC(=O)CN(c1ccccc1OC)S(C)(=O)=O | -6% | -9%
CCC(=O)N1CCCc2cc(S(=O)(=O)Nc3ccc(C)c(C)c3)ccc21 | ? | ?
O=c1c2cc3c(cc2nc2sc(Nc4ccc(F)cc4F)nn12)OCO3 | -8% | 7%
CC(N[C@H]1CCCC[C@H]1NC(=O)c1ccc(Cl)cc1)c1cccc2ccccc12 (some centres not stated) | nt | -18%
CCc1cc(=O)[nH]c(SCc2nc(-c3ccc(C(F)(F)F)cc3)no2)n1 | -14% | ?
COc1cc(C2CC(=O)Nc3c2c(=O)[nH]c2ncnn32)ccc1O (configuration not stated) | 3% | -6%
COc1ccc2nc(N(Cc3cccnc3)C(=O)CCc3ccccc3)sc2c1 | ? | ?
Cc1ccc(CNc2nc3ccccc3n3c(C)nnc23)cc1 | -24% | -10%

Rewritten with values under each structure: entries from further up.
Below each compound: PMP22 txn prim | HTT prom inh
> Cc1cccc(C)c1OCC(=O)Nc1c(C(=O)c2ccccc2)oc2ccccc12
 : -22% | -7%
> Cc1cccc(-c2nc(CSCC(=O)N3CCN(c4cccc(C)c4C)CC3)c(C)o2)c1
 : ? | ?
> COc1ccccc1CNC(=O)CN(c1ccccc1OC)S(C)(=O)=O
 : -6% | -9%

Further compounds follow:
Molecule | PMP22 txn prim | HTT prom inh
CC[C@H]1OC(=O)[C@H](C)[C@@H](O[C@H]2C[C@@](C)(OC)[C@@H](O)[C@H](C)O2)[C@H](C)[C@@H](O[C@@H]2O[C@H](C)C[C@H](N(C)C)[C@@H]2O)[C@](C)(OC)C[C@@H](C)C(=O)[C@H](C)[C@@H](O)[C@]1(C)O | nt | -14%
Cc1c(Cl)cccc1NC(=O)N1CCC(CN2CCCC2)CC1 | 6% | -16%
CCCCCCCCCCCCCCCC[N+](C)(C)CCN(Cc1ccc(OC)cc1)c1ncccn1 | nt | ?
CCc1ccc(NC(=O)CC2C(=O)NCCN2C(=O)c2ccccc2OC)cc1 (configuration not stated) | 14% | -12%
CCN(CC)C(=O)Cn1c(=O)n(-c2ccc(C)c(C)c2)c(=O)c2c(C)c(C(=O)N(CC)CC)sc21 | -39% | -15%
Cc1cc(C)c2oc(-c3ccc(Cl)c(NC(=O)c4cccs4)c3)nc2c1 | -37% | -1%
Cc1ccc(NC(=O)Cn2c(-c3nonc3N)nc3ccccc32)c(Br)c1 | -6% | -26%
Cc1ccc(NC(=O)c2nc(S(=O)(=O)Cc3ccc(F)cc3)ncc2Cl)cc1C | 7.3µM* | ?
CCN(c1ccccc1)S(=O)(=O)c1ccc(NC(=O)c2nc(SC)ncc2Cl)cc1 | ? | ?
Cc1ccc(CN2CCN(CC(=O)NCc3ccccc3Cl)C2=O)cc1 | -21% | -5%

Looked up by structure from the list above:
Molecule | PMP22 txn prim | HTT prom inh
CCCCCCCCCCCCCCCC[N+](C)(C)CCN(Cc1ccc(OC)cc1)c1ncccn1 | nt | ?
Cc1cc(C)c2oc(-c3ccc(Cl)c(NC(=O)c4cccs4)c3)nc2c1 | -37% | -1%

Following part
Molecule | PMP22 txn prim | HTT prom inh
CCc1ccc(N2CC(C)Cn3c2nc2c3c(=O)n(CC(=O)O)c(=O)n2C)cc1 (configuration not stated) | -1% | 0%
CCOC(=O)c1c(NC(C)=O)c2c3c(sc2n1Cc1nc(-c2cccc(C)c2)oc1C)CCCC3 | -16% | -11%
CCCCNC(=O)CCC(=O)NNc1nc2ccccc2c2nc(C)nn12 | -26% | -5%
COc1cccc(CNc2sc3c(c2C(=O)Nc2ccc(OC)cc2OC)CCC3)c1 | -34% | -9%
C[C@H](CS)C(=O)N1CCC[C@H]1C(=O)O | nt | 6%
COc1ccc(OC)c(CNC(=O)c2ccc3c(c2)c(C)c(C)n3C)c1 | -11% | -5%
O=C(CSc1cn(CC(=O)N2CCCCC2)c2ccccc12)Nc1ccc(C(F)(F)F)cc1 | ? | 41%[activator]
Cc1cccc(NC(=O)c2cc(S(=O)(=O)NCCc3ccccc3)ccc2F)c1C | -61% | ?
COc1ccc(-c2nc(SCC(=O)c3ccc(OC)c(Br)c3)n[nH]2)cc1 | -24% | ?
COc1ccc(CCNC(=O)CN2C(=O)COc3ccc(S(=O)(=O)N4CCCC4)cc32)c(OC)c1 | -12% | -27%
CN(C)[C@@H]1C(=O)C(C(N)=O)=C(O)[C@@]2(O)C(=O)C3=C(O)c4c(O)ccc(Cl)c4[C@@H](O)[C@H]3C[C@@H]12 | nt | -1%
CCNC(=O)C1CCN(S(=O)(=O)c2ccc3c(c2)CCCN3C(C)=O)CC1 | 8% | -10%
CCOC(=O)c1ccc(NC(=O)c2cn(-c3ccccc3)nc2-c2ccc(OC)c(OC)c2)cc1 | -57% | -1%
CCOC(=O)C1CCN(c2cc3c(cc2NC(=O)c2ccc(Cl)cc2)n(C)c(=O)n3C)CC1 | -11% | -4%
COc1ccc(-c2c(C#N)c(SCC(=O)Nc3ccc(Br)cc3)nc(C)c2C(=O)Nc2ccccc2)cc1 | -4% | 11%
COc1ccccc1N1CCN(c2c(CN3CCCC3)c(=O)oc3ccccc23)CC1 | ? | -5%
COc1ccccc1-c1noc(CSc2nnc(Cc3ccccc3)n2-c2ccc(C)c(C)c2)n1 | ? | ?
Cn1c(=O)oc2cc(S(=O)(=O)CCC(=O)N3CCN(c4ccccc4F)CC3)ccc21 | 12% | -14%[11.5 µM]
Cn1cnc(S(=O)(=O)N2CCC(C(=O)Nc3ccc(F)cc3F)CC2)c1 | 14% | -11%
Cc1ccc(CNC(=O)c2c[nH]c3ccc(S(=O)(=O)Nc4ccc(C(C)C)cc4)cc3c2=O)cc1 | -24% | ?
COC(=O)CC(=O)CSc1nc2cc(C(=O)NCC(C)C)ccc2c(=O)n1CCc1ccccc1 | -23% | -21%
CCOc1ccc(NC(=O)Cn2c(=O)n(Cc3ccc(C(=O)NCc4ccc(C)cc4)cc3)c(=O)c3ccccc32)cc1 | ? | -1%
O=C(O)c1ccc2c(c1)N(Cc1ccc(F)cc1)C(=O)c1ccccc1S2=O (configuration not stated) | ? | ?
O=C(Nc1nnc(S(=O)(=O)N2CCCCCC2)s1)c1cccc(Br)c1 | -15% | ?
Cc1ccc(Cl)cc1NC(=O)c1ccc2nc(CCc3ccccc3)oc2c1 | ? | -31%
CCOC(=O)CSC1=Nc2ccccc2C2=NC(CCC(=O)NCc3ccccc3)C(=O)N12 (configuration not stated) | -9% | -12%
NCCC(O)(P(=O)(O)O)P(=O)(O)O | nt | 14%
COc1ccc(N2C(=O)CSC23C(=O)N(CC(N)=O)c2ccccc23)cc1 (configuration not stated) | -3% | 30%
COc1ccc2sc(N(Cc3cccnc3)C(=O)c3ccco3)nc2c1 | -13% | ?
CCNc1ncnc2c1nnn2C | -6% | -7%
CCCC(=O)C1=C(c2ccc(C)cc2)N(C(=O)CCC)n2cnnc2S1 | ? | ?
CC(NC(=O)c1ccc(N2Cc3ccccc3Oc3ncccc32)s1)c1ccccc1 (configuration not stated) | -25% | -19%
CCN(C(=O)CCNC(=O)Cn1cnc2ccccc2c1=O)c1cc(OC)ccc1OC | -22% | -6%
COc1ccc(NC(=O)C2CCN(c3ccc(Sc4ccc(C)cc4)nn3)CC2)cc1 | -32% | -9%
COc1cccc(CNC(=O)Cn2nc(N3CCN(c4ccccc4OC)CC3)ccc2=O)c1 | -12% | 0%
Cc1cccc(NC(=O)CSc2nc(-c3ccccc3)cc(=O)[nH]2)c1C | 6% | -13%
COc1ccc(C2C(=O)N(C3CCCCC3)CC(=O)N2CCc2ccc(OC)c(OC)c2)cc1 (configuration not stated) | 3% | -8%
CC(C)CCCC(C)CCCC(C)CCCCC(C)CCCC(C)CCCC(C)C (configuration not stated) | nt | -2%
CCOC(=O)N1CCC(NC(=O)c2cnn(-c3cccc(Cl)c3C)c2C2CCN(C(=O)OC(C)(C)C)CC2)CC1 | -28% | 7%
COc1ccc(Cn2c(C(=O)O)c(CNCc3ccco3)c3ccc(OC)cc32)cc1 | 21% | -30%
Cc1ccc2oc(C(=O)Nc3sc4c(c3C(=O)NCc3ccco3)CCC4)cc(=O)c2c1 | ? | -1%[11.5 µM]
COc1ccc2c(c1)C=C(C(=O)NCc1cc(Br)ccc1OC)CO2 | -8% | -24%
Cc1cc(C)cc(NC(=O)Nc2cccs2)c1 | -18% | 25%
CS(=O)(=O)N1CCc2cc(C(=O)N3CCN(c4ccc(F)cc4)CC3)ccc21 | 9% | -25%
O=S(=O)(c1ccc2nc(Nc3ccc(Br)cc3F)ccc2c1)N1CCCC1 | -27% | 4%
CC(=O)c1ccc(NC(=O)c2cn3c4c(ccc(Cl)c4c2=O)OC(C)C3)cc1 (configuration not stated) | -7% | -8%
CC(=O)N1c2c(cc(Br)cc2S(=O)(=O)Nc2ccc(OC(F)(F)F)cc2)CC1C (configuration not stated) | 16µM* | 25µM*
COc1ccc(CN2CCCN(CC(=O)Nc3ccc(Br)cc3F)S2(=O)=O)cc1 | -13% | 2%
CCOc1cc(C(=O)N2CCC(c3ccncc3)CC2)cc(OCC)c1OCC | 0% | -16%
C=CCc1cccc2cc(-c3nc4ccc(C(=O)O)cc4[nH]3)c(=O)oc12 | -20% | ?

Further entries.
Molecule | PMP22 txn prim | HTT prom inh
CCOc1cc(-c2nnc(SCC(=O)NC3CCCCC3)nc2-c2ccc(OC)c(OCC)c2)ccc1OC | -14% | -8%
COc1ccc(OCC(=O)Nc2ccc3c(c2)nc(CCNC(=O)c2ccco2)n3C)cc1 | 2% | -25%
Cn1c(=O)oc2cc(S(=O)(=O)CCC(=O)NCc3ccc(Cl)cc3)ccc21 | -8% | -10%
Cc1c(C(=O)N2CCCC2)oc2c1-c1nn(CC(=O)NCc3ccccc3F)cc1CC2 | ? | -24%
COc1ccc(NC(=O)c2c(NCc3sccc3C)sc3c2CCCCC3)c(OC)c1 | ? | -24%
Cc1ccc(N(C)C(=O)Cn2ncc3c([nH]c4ccccc43)c2=O)cc1C | 0% | -3%
O=C(Nc1cccc(Cl)c1Cl)c1cc2nc(-c3ccc(Cl)cc3)cc(C(F)(F)F)n2n1 | -3% | -13%[11.5 µM]
CC1=C(C(=O)OCC2CCCCC2)C(c2cccc(F)c2F)CC(=O)N1 (configuration not stated) | -19% | ?
CCc1ccc(S(=O)(=O)NCc2cccn2Cc2cccc(C)c2)cc1 | -22% | -13%
CCOC(=O)C1(C)C=C(Nc2cccc(C)c2)C(=O)N1c1ccccc1 (configuration not stated) | 5% | ?
CC1CCN(S(=O)(=O)c2ccc3c(c2)N(C)C(=O)CC(=O)N3C)CC1 | -17% | -11%
Cc1cc(C)n(C(C)CC(=O)Nc2cccc(C(F)(F)F)c2)n1 (configuration not stated) | 2% | -10%
COc1ccc2c(c1)c1c(c(=O)n(Cc3ccccc3)c(=O)n1CC(=O)NCc1ccc(C)cc1)n2C | 2% | -10%
CCOc1ccc(NC(=O)Cn2cc(C(=O)c3ccccc3)c(=O)c3cc4c(cc32)OCCO4)cc1 | ? | -8%
CCc1ccc(NS(=O)(=O)c2ccc3[nH]c4c(c3c2)CCCCCC4)cc1 | -28% | ?
Cc1cc(C)c2oc(-c3cccc(NC(=O)COc4ccc([N+](=O)[O-])cc4)c3)nc2c1 | ? | -26%
Cc1cccc(N2CCN(C(=O)c3ccc4c(c3)N(Cc3cccc(Cl)c3)C(=O)c3ccccc3S4=O)CC2)c1C (configuration not stated) | -141% | ?
CN1CCN(c2nc3c(S(=O)(=O)c4ccc(Br)cc4)nnn3c3ccsc23)CC1 | ? | 5%
Cc1ccc(C)c(CN2CCCN(Cc3ccccc3C)S2(=O)=O)c1 | 0% | -5%
CCOCCc1nn2c(=O)cc(COC(=O)c3ccc(NC(=O)C(C)(C)C)cc3)nc2s1 | 8% | -38%
O=C(Cn1c(=O)oc2ccccc21)Nc1ccc(C(=O)O)cc1 | -9% | -19%
Cc1ccc2occ(-c3cc(-c4ccc(F)cc4)nc4c3COc3ccc(F)cc3-4)c(=O)c2c1 | -17% | -11%
Cc1ccc(C)c(CN2C(=O)c3ccccc3S(=O)c3ccc(C(=O)N4CCOCC4)cc32)c1 (configuration not stated) | -7% | -24%
Cc1ccc(-n2c(SCc3ccccc3)nc3c([nH]c4ccccc43)c2=O)cc1 | ? | -10%
Cc1ccc(C(=O)N2CCc3cc(CNS(=O)(=O)c4ccc(Cl)s4)ccc32)cc1 | ? | ?
